Calb biofilm kill = clotrimazole potentiators killing C. albicans biofilm, primary screen, 4-compound mixtures. inhibition, % at 7.6 µM. C. albicans biofilm persisters + clotrimazole, fluorescence viability; primary screen in compound mixtures of four per well. actives 0.02% (n = 120,000);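 active = inhibition above 30.3% in the primary screen of four-compound pools, then above 30% when the compound was retested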;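 note: compounds exposed to preformed 24 h biofilms for 48 h; the number belongs to the whole pool; some results filed as inactive read as strong as hits; inactives centre near 12; 0% = biofilm with clotrimazole alone and 100% = kill control; retested singly at about 60 µM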
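Test system: C. albicans CAF4-2 wild-type biofilms; buffer or medium: RPMI/MOPS medium, pH 7.0; schedule: 24 h biofilm formation, then 48 h compound exposure, 37 °C; detection: Alamar Blue fluorescence; measure: percent inhibition of biofilm viability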
* marks the source's active call; other numbers are inactive results.

compound	Calb biofilm kill
Cc1ccc2nc(NC(=S)NC(=O)c3ccco3)sc2c1	18
CCCCCCC1(C)NC(=S)N(c2ccccc2)N1 (configuration not stated)	21
CCO[C@H]1OC(C(=O)NCc2nc3ccccc3[nH]2)=C[C@@H](C)[C@@H]1CCCO	4
CCOc1ccc2nc(NC(=O)COc3ccc(N(C)S(=O)(=O)c4ccc(C)cc4)cc3)sc2c1	4
O=C(CSc1ccc(-c2ccco2)nn1)NCCc1ccccc1	7
O=C(O)/C(=C\c1cccc(F)c1)c1ccc(S(=O)(=O)N2CCCCC2)s1	17
CCCN(CCC)CCCn1c(=O)[nH]c2ccccc21	14
Cn1c(CNC(=O)c2ccccc2F)nnc1SCc1ccc(F)cc1	7
Cc1ccccc1NC(=S)N/N=C/C(C)c1ccccc1 (configuration not stated)	14
OCC1(Cc2cccc(F)c2)CCN(Cc2ccc3cccc(F)c3n2)CC1	4
CCC(=O)NC(c1ccccc1)c1c(OC(C)=O)ccc2ccccc12 (configuration not stated)	30
COc1ccc(Cn2cc([N+](=O)[O-])nc2C)cc1[N+](=O)[O-]	25
Cc1cc(O)cc(O)c1C(=O)Cc1ccccc1	13
Cn1nnnc1NCc1cccc(Cl)c1Cl	9
Cc1sc(NC(=O)C2CCCC2)c(C#N)c1C	13
CCOc1ccc(Br)cc1S(=O)(=O)Nc1ccc(C(=O)Nc2ccccc2OC)cc1	15
Cc1c(NC(=O)C(C)OC(=O)c2cccs2)c(=O)n(-c2ccccc2)n1C (configuration not stated)	9
COc1ccc(/C=C/C(=O)C(C)(C)C)cc1OC	17
COC(=O)c1nnn(CC(=O)NC(=O)Nc2cccc(C)c2C)c1C(=O)OC	12
CC(C)(CC(=O)O)CC(=O)N1CCCN(c2nc3ccc(Cl)cc3s2)CC1	17

Some of these compounds in order of formula weight, descending.
compound	Calb biofilm kill
Cc1ccc2nc(NC(=S)NC(=O)c3ccco3)sc2c1	18
COc1ccc(/C=C/C(=O)C(C)(C)C)cc1OC	17
Cc1cc(O)cc(O)c1C(=O)Cc1ccccc1	13

Other results
compound	Calb biofilm kill
COc1cc(/C=N/N=C/c2cc(OC)c(O)c(OC)c2)cc(OC)c1O	5
Cc1cccc(C(=O)NC2CCCc3ccccc32)c1 (configuration not stated)	7
Cc1cnccc1CNC(=O)CC1C(=O)NCCN1CC(C)(C)C (configuration not stated)	22
CCN1CCCC(OC(=O)c2cc(-c3ccccc3Cl)nc3ccccc23)C1 (configuration not stated)	29
C/C(=N/NC(=O)c1cccs1)c1cccc(N)c1	8
Cc1ccccc1Nc1nccc(N(C)C)c1C#N	11
COc1ccc(/C=C(/NC(=O)c2ccccc2)C(=O)N/N=C/c2ccncc2)c(OC)c1	17
CCOc1ccc(NC(=S)NC(=O)/C=C/c2ccc(OC)cc2)c([N+](=O)[O-])c1	4
Cc1ccnc(NC(NC(=O)C(C)C)(C(F)(F)F)C(F)(F)F)c1	11
Cc1ccc(-c2cc(C(F)F)nc(N3CCOCC3)n2)cc1	13
O=C(NNC(=O)c1ccccc1Cl)c1cc2cc(OC(F)(F)F)ccc2[nH]1	12
C/C(CC(=O)Nc1ccccn1)=N\NC(=O)c1ccc2ccccc2c1	-9
CCCC(=O)NC(=S)Nc1ccc(N2CCN(C(=O)c3cccs3)CC2)cc1	5
CCCCNC(=O)/C(C#N)=C/c1cccnc1	3
O=C(/C=C/c1ccc(Br)cc1)NC(=S)NNC(=O)c1ccco1	9
COc1ccc(C(=O)NCc2ccc(S(N)(=O)=O)cc2)cc1[N+](=O)[O-]	14
COc1cc2cc(Oc3ccc4ccc(=O)oc4c3)c(=O)oc2cc1OC(C)=O	20
O=C(COC(=O)COc1ccc(Cl)cc1)NCc1cccs1	4
Cc1ccc(C(=O)Nc2cccc(C(F)(F)F)c2)cc1NC(=O)c1ccno1	14
CCOC(=O)C1(Cc2cccc(OC)c2)CCCN(C(=O)c2ccccc2C)C1 (configuration not stated)	21

The list goes on.
compound	Calb biofilm kill
Cc1cc(C)cc(NC(=S)NCc2ccncc2)c1	18
Cc1ccc(Cn2nc(C)c(NC(=O)CSc3n[nH]c(C)c3[N+](=O)[O-])c2C)cc1	2
COc1ccccc1Oc1nc([N+](=O)[O-])nn1CC(N)=O	13
CCCNS(=O)(=O)c1ccc(OCC(=O)N2CCN(c3ccccc3)CC2)cc1	5
O=C1c2ccccc2C(Nc2ccccc2)N1Cc1ccc2c(c1)OCO2 (configuration not stated)	32
CN(C)N1C(=O)CC(N2CCCC2)C1=O (configuration not stated)	7
CCc1ccc2ncc(C(=O)c3ccccc3)c(N3CCOCC3)c2c1	7
CCOCCc1nnc(NC(=O)c2cc(OC)c(OC)cc2[N+](=O)[O-])s1	12
CCOC(=O)CN(c1ccccn1)S(=O)(=O)c1ccc(OC)cc1	17
CC(C)C(=O)Nc1ccc(C(=O)Nc2nnc(C(C)(C)C)s2)cc1	12
NS(=O)(=O)c1ccc(NC(=S)NC(=O)/C=C/c2ccco2)cc1	14
NS(=O)(=O)c1cccc(NC(=O)Cn2cc(C(F)(F)F)cc(Cl)c2=O)c1	15
COC(=O)CSc1nnc(CNC(=O)c2ccc(S(=O)(=O)N3CCOCC3)cc2)n1C	14
Cc1ccc(C(C)C)c(OCC(=O)NNC2=CC(=O)CC(C)(C)C2)c1	8
COc1ccc(C)cc1S(=O)(=O)N1CCC(C(=O)NCCc2ccccc2)CC1	13
Cc1cccc(-n2ccnc2CN2CCN(C3CCCC3)C(CCO)C2)c1 (configuration not stated)	8
O=C(c1cccnc1)N1CCN(c2ccc([N+](=O)[O-])cc2Cl)CC1	14
Cc1ccc(-c2nc3ccccc3c(=O)n2NC(=O)COc2ccccc2)cc1	16
CCCC1Cc2c(sc(N)c2C#N)CO1 (configuration not stated)	11
CC(=O)C1=C(O)C(=O)N(c2ccc(S(N)(=O)=O)cc2)C1c1cccc([N+](=O)[O-])c1 (configuration not stated)	21

Gathered by group, those above with bromine
compound	Calb biofilm kill
CCOc1ccc(Br)cc1S(=O)(=O)Nc1ccc(C(=O)Nc2ccccc2OC)cc1	15
O=C(/C=C/c1ccc(Br)cc1)NC(=S)NNC(=O)c1ccco1	9

(listing goes on)
compound	Calb biofilm kill
COc1ccc(C2C=C(C)Nc3nc4ccccc4n32)cc1 (configuration not stated)	3
O=C(/C=C/c1cccc([N+](=O)[O-])c1)NCc1ccco1	2
CC(=O)N/N=C/c1cc(C(C)(C)C)cc(/C=N/NC(C)=O)c1O	22
O=C(CC1SC(=O)N(Cc2ccccc2Cl)C1=O)Nc1nccs1 (configuration not stated)	14
COc1ccccc1N1CCN(C(=O)/C=C/c2c(Cl)nc3ccccn23)CC1	3
Cc1ccc(/C(N)=N/OC(=O)c2cccc(Cn3cc(C(F)(F)F)ccc3=O)c2)cc1	2
O=C(CCN1C(=O)c2ccccc2C1=O)C1=NN[C@@H]2C(=O)N(c3cccc(F)c3)C(=O)[C@H]12	16
CCC(Sc1nc2ccsc2c(=O)n1-c1ccc(Cl)c(C)c1)C(=O)NCc1ccco1 (configuration not stated)	19
CC(C)CNS(=O)(=O)c1ccc(OCC(=O)Nc2ccc(F)cc2F)cc1	-9
CC(=O)Nc1ccc(S(=O)(=O)NCc2csc(C)n2)cc1	14
COc1ccc(-c2[nH]ncc2/C=N/NC(=O)c2cccc([N+](=O)[O-])c2)cc1OC	-4
CC1CCN(C(=O)CSc2nnc(-c3ccncc3)n2C)CC1	-7
CCOC(=O)c1cc(COc2cc(Cl)cc(Cl)c2)on1	-4
O=S(=O)(c1cccc(-c2n[nH]c(=S)o2)c1)N1CCOCC1	17
CN(C)CCNC(=O)CNC(=S)N(Cc1ccccc1)Cc1cccnc1	21
O=C(Nc1ccccc1)c1ccc(-c2ccccc2Cl)o1	15
Cc1ccc(S(=O)(=O)CC(=O)c2ccc3c(c2)OCCO3)cc1	8
O=C1Nc2ccccc2/C1=N\N=C\c1ccc(O)c(O)c1	17
CCOC(=O)C1(Cc2ccc(OC)cc2)CCN(C(=O)CN2CCOC2=O)CC1	1
CCC1=C2CC[C@H]3C(=O)N(CC)C(=O)[C@H]3[C@H]2[C@@]2(Cc3ccccc3)C(=NCCOC)OC(=O)N2C1=O	14

(further entries)
compound	Calb biofilm kill
NNC(=O)c1sccc1OCc1ccc(Cl)cc1	-11
Cc1oc(/C=N/NC(=O)CC2(C)OCCO2)cc1Br	12
O=C(N/N=C/C1CC=CCC1)c1ccc(Cl)cc1O (configuration not stated)	23
Cc1ccc(S(C)(=O)=NC(=O)NC(=O)c2c(Cl)cccc2Cl)cc1 (configuration not stated)	13
COc1cccc(CNc2ncnc3cc(Cl)ccc23)c1	15
CCOC(=O)C1=C(N)Oc2ccc3ccccc3c2C1c1cccnc1 (configuration not stated)	7
CC(=O)Nc1nc(-c2ccc3c(c2)CCN3S(C)(=O)=O)cs1	24
CCC(c1nnc(SCC(=O)Nc2ccc(C(C)=O)cc2)n1C1CCCCC1)N(C)C (configuration not stated)	11
CC(C)c1ccc(C2C(C#N)=C(N)Oc3c2oc(CO)cc3=O)cc1 (configuration not stated)	1
COc1ccc(CC(=O)OCC(=O)Nc2ccc(N3CCOCC3)cc2)cc1	15
Cc1cc(C)cc(Nc2nc(-c3ccc(S(=O)(=O)N4CCCC4)cc3)cs2)c1	6
COc1ccc(S(=O)(=O)N2CCOCC2)cc1NC(=O)CN(C)Cc1c(F)cccc1Cl	6
O=C(Nc1cccc([N+](=O)[O-])c1)c1cccc(C(=O)Nc2cccc([N+](=O)[O-])c2)c1	1
O=C1C(=O)c2ccccc2C(O)=C1CCCCl	17
N/C(CC(=O)Nc1ccc(F)cc1)=N\O	11
CCNCCOC(c1ccccc1)c1ccccc1	14
COc1ccc(C(=O)Nc2ccc(-n3nncc3C(C)(C)C)cc2)cc1	15
CCC1C(C#N)=C(SCC(N)=O)NC2=C1C(=O)CC(C)(C)C2 (configuration not stated)	8
COc1ccc(-c2nn(-c3ccccc3)cc2/C=C/C(=O)N2CCN(c3ccccn3)CC2)cc1	15
CCCCC(=O)N/N=C/c1ccc(-c2ccc([N+](=O)[O-])cc2)o1	2

Following part.
compound	Calb biofilm kill
O=C(CNC(=O)c1ccc(F)cc1)N/N=C/c1cc(Br)ccc1OCc1ccccc1	8
COc1cc(OC)c(S(=O)(=O)Nc2ccccc2NC(=O)CN2CCOCC2)cc1NC(C)=O	9
Cc1cccc(N2CC(C(=O)Nc3ccc(S(=O)(=O)N4CCOCC4)cc3)CC2=O)c1 (configuration not stated)	17
O=C(NCc1ccccn1)c1cccc(NS(=O)(=O)c2cccc(Cl)c2)c1	20
COc1cc(/C=C2\SC(=Nc3ccc(O)cc3)NC2=O)cc(OC)c1O	4
COC(=O)c1c(NC(=O)COC(=O)[C@@H](NS(=O)(=O)c2cccc(Cl)c2)C(C)C)sc2c1CCC2	19
CS(=O)(=O)Nc1ccc(C2=NN(C(=O)c3ccco3)C(c3ccccc3F)C2)cc1 (configuration not stated)	12
O=S(=O)(NCC1COc2ccccc2O1)c1ccc2ccccc2c1 (configuration not stated)	16
CC1CC(C)CN(S(=O)(=O)c2cc(C(=O)O)c(Cl)s2)C1 (configuration not stated)	12
O=c1c2c3c(sc2nc2n1CCCC2)CCCC3	3
CCc1ccc(Oc2coc3cc(OC(=O)c4cc5ccccc5oc4=O)ccc3c2=O)cc1	5
CN(C)c1ccc(/C=N/NC(=O)Cn2nnc3ccccc32)cc1	12
CC1=C(C(N)=O)C(c2ccccn2)n2nc(SCc3ccccc3)nc2N1 (configuration not stated)	6
CCOC(=O)C1CCN(c2c(C(=O)c3ccccc3)cnc3ccc(CC)cc23)CC1	2
CN1CCN(C(=O)c2cc(C(C)(C)C)cc(C(C)(C)C)c2)CC1	23
Cc1[nH]n(-c2ccccc2)c(=O)c1C(c1cccc([N+](=O)[O-])c1O)c1c(C)[nH]n(-c2ccccc2)c1=O	10
Cc1cc(C)cc(Oc2nc3c(C)cccn3c(=O)c2/C=C(\C#N)C(=O)NC2CCS(=O)(=O)C2)c1 (configuration not stated)	-3
N/C(=N\OC(=O)CN1C(=O)c2ccccc2C1=O)c1ccc(Cl)cc1	13
CCn1c(SCC(=O)NC(C)(C)C)nnc1-c1ccoc1C	15
O=C(COc1cccc2cccnc12)N/N=C/c1ccc(O)cc1	-4

Single entries from the list.
`CCOC(=O)CN(c1ccccn1)S(=O)(=O)c1ccc(OC)cc1` in Calb biofilm kill → 17
`O=C(NCc1ccccn1)c1cccc(NS(=O)(=O)c2cccc(Cl)c2)c1` in Calb biofilm kill → 20

(further entries)
compound	Calb biofilm kill
Cc1cc(SCC(=O)NCCN2C(=O)CSC2=O)nc2c(C)cccc12	16
CCc1ccc(CNC(=O)CCc2nnc(Cc3cccc(C(F)(F)F)c3)o2)nc1	16
CC(C)c1ccc(C(=O)Nc2ccc(N3CCOCC3)cc2)cc1	10
CC(=O)N1CCc2cc(S(=O)(=O)CCC(=O)NCc3ccco3)ccc21	15
COc1ccccc1Cc1nc2ccccc2n1S(=O)(=O)c1ccc(Cl)cc1	13
c1ccc(C2=Nc3cccc4cccc(c34)N2)cc1	18
C=CCc1ccc(O)c(-c2ccc(O)c(CC=C)c2)c1	2
COc1ccc(-c2nnc(SCC(=O)NCc3cccs3)n2C)cc1	9
Cc1sc2nc(CN(C(=O)NC3CCCCC3)C3CCCCC3)[nH]c(=O)c2c1C	11
O=C(Cn1cncn1)N/N=C/c1ccccc1Cl	17

These rows are one share of the data, so the mix of outcomes need not match the whole.
